# Compound activity (PubChem BioAssay)
# eIF4H inh – inhibitors of RNA binding by human eIF4H. 290,000 tested, 0.94% active. eIF4H fluorescence polarization binding assay. inhibition, % at 35 µM;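 active = 50% or more with normal probe brightness, or confirmed in later tests; about a fifth of its hits are not listed in these tables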;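 also: calls also rest on retests at 20 µM and on dose response follow-up; 0% = protein and probe with vehicle and 100% = probe without protein; strong numbers were not always called active; many hits fall short of the cut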
# PABP polyA inh – blocks human PABP binding to poly(A) RNA | P11940 | fluorescence polarization | inhibition, % at 35 µM | 290,000 tested, 1% active;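 active = 50% or more with normal probe brightness, or confirmed in later tests; about a fifth of its hits are not listed in these tables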;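 also: calls also rest on retests at 20 µM and on dose response follow-up; controls were probe without protein and protein plus probe with vehicle; some compounds called inactive have numbers as strong as hits; many hits fall short of the cut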
# Target sequence (P11940 whole entry, looked up): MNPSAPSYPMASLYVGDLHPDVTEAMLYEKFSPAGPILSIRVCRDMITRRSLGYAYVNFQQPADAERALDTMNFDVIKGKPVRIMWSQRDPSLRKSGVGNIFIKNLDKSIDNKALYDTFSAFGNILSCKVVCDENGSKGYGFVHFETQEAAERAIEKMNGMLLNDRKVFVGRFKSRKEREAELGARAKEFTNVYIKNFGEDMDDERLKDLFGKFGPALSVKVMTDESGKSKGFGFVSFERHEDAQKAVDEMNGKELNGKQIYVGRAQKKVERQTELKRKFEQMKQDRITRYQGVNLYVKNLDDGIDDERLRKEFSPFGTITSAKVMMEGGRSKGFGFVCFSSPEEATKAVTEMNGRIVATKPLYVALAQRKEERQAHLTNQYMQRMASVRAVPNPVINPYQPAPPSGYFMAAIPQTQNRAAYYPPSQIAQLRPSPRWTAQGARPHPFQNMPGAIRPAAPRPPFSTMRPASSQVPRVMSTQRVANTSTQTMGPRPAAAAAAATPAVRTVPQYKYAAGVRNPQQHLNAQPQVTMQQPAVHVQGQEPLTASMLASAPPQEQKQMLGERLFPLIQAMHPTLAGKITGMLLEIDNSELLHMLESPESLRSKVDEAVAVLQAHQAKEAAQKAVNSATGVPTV
# HIV Env fusion – blocks HIV Env-driven cell-cell fusion; AID 651610; 360,000 tested, 1.1% active; HeLa-JRFL Env/CEM21 cell fusion, luciferase; inhibition, % at 12.3 µM;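 active = mean replicate inhibition score of at least 50 and every replicate individually at or above 50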;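 also: 0% = plate neutral controls and 100% = maraviroc near 300 nM; one replicate is shown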
# MT1-MMP act inh – inhibitors of human MT1-MMP activation; P50281; HT1080 RFP-PRO-GFP cells, GFP/RFP ratio fluorescence, overnight; percent of plate control window, DMSO zero; GFP/RFP ratio change, % at 20 µM; 360,000 tested, 0.061% active; AID 651647;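 active = GFP/RFP ratio change of at least 30% with cell ATP level not reduced by more than half and red fluorescence within 50% of control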; also: strong numbers were not always called active
#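 Test system: HT1080 RFP-PRO-GFP cells; Benchmarks: DMSO and RFP-L50D-GFP cell wells; Timing: cells overnight before dosing, compound overnight, 37 °C, 5% CO2; Compound: one 20 µM compound dose with 1% DMSO; Read-out: GFP/RFP fluorescence ratio.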
# Rce1 inhib – inhibitors of yeast Ras-converting enzyme. Q03530. yeast membranes, quenched prenylated peptide cleavage fluorescence. calls only. 290,000 tested, 0.27% active;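 active = fall in fluorescence gain of 50% or more versus controls, with final raw signal at or below 3038400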;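 also: plate controls were neutral control wells for no effect and wells lacking membranes for full effect; tested at 10 µM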
# UUG fidelity – yeast start codon fidelity modulation; S. cerevisiae UUG-firefly luciferase reporter, luminescence/redox ratio; activity score, % at 18.7 µM; 350,000 tested, 0.13% active;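 active = replicate mean at a twofold rise or more, about +100% in these data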;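 also: firefly luciferase made from a UUG start codon reports start codon fidelity; reporter light over untreated wells divided by growth signal over untreated wells; some hits fall short of that in this replicate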
# CSC inhib – cancer stem cell inhibition; AID 2717; inhibition, % at 7.5 µM; 300,000 tested, 1.1% active; cancer stem cell-like cells viability, luminescence;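 active = mean at 75% or more and at least half the replicates too; tested in HMLE shEcad cells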;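 also: 0% = median of negative and 100% = median of positive control wells; the first replicate is given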
# eIF4H inh retest – second read-out of eIF4H inh, no call of its own (marks repeat the call); inhibition, %; compound at 20 µM; confirmation average;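 mean of two retest wells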
# PABP polyA inh retest – further read-out of PABP polyA inh, marked with its call; inhibition, %; compound at 20 µM; confirmation repeats;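 mean of two retest wells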
# MT1-MMP act inh RFP – also measured in MT1-MMP act inh; calls as there; RFP signal change, %; measured here: RFP expression control read;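 0 = vehicle wells; hits needed this value within 50% of zero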
# * = called active by the depositor; i = inactive; · = no result given.
SMILES,eIF4H inh,PABP polyA inh,HIV Env fusion,MT1-MMP act inh,MT1-MMP act inh RFP,Rce1 inhib,UUG fidelity,CSC inhib,others
O=S(=O)(NCCNc1ncc(C(F)(F)F)cc1Cl)C(F)(F)F,-6,-11,11,1,-10,i,·,45,
O=C(Nc1ccc(Cl)c(S(=O)(=O)N2CCOCC2)c1)c1cc(-c2ccccn2)nc2ccccc12,5,-6,5,11,-8,i,-8,3,
Cc1[nH]c2ccccc2c1C(=O)COc1ccccc1,-5,3,-34,-1,1,i,·,·,
CCOc1ccc(OCC(=O)Nc2cc(Cl)ccc2-n2cncn2)cc1,·,·,16,3,3,·,-9,·,
COc1ccc(CN2[C@@H](CC(=O)O)c3ccc(C(F)(F)F)cc3S2(=O)=O)cc1,·,·,7,·,·,i,·,17,
CC1CCCCC12NC(=O)N(CC(=O)NC(=O)NCc1ccco1)C2=O (stereo unspecified),0,1,19,0,1,i,-4,-5,
O=C(Cc1ccccc1)NCCCN1CCN(CCCNC(=O)Cc2ccccc2)CC1,-1,-8,-34,-1,8,i,29,-10,
CCCCN(C(=O)CCC(=O)Nc1cc(C)on1)C(C(=O)NC1CCCC1)c1cccc(OC)c1 (stereo unspecified),7,8,24,-3,-2,i,-5,29,
NC(=O)Nc1ccccc1C(=O)N1CCC(O)(c2ccc(Cl)cc2)CC1,-3,5,-18,2,5,i,0,5,
Cc1ccc(-c2nc(SCC(=O)c3c(N)n(C)c(=O)n(C)c3=O)n[nH]2)cc1,22,3,-4,1,-1,·,·,-5,
O=C(CC1C(=O)NCCN1C(=O)Nc1ccc(F)cc1)Nc1ccc(F)cc1 (stereo unspecified),-4,-7,18,2,2,i,-4,5,
CC(=O)N1CCC(N(C(=O)Nc2ccc(Cl)cc2)C(C)C)CC1,-3,7,-12,-8,-4,i,-13,12,
C/C=C(\C)C(=O)NCCN1C2=NC[C@H](Cc3ccccc3)N2C[C@@H]1Cc1ccc(OC)cc1,·,·,-193,-3,1,i,10,-9,
O=C(Nc1ccn(CCCNCc2ccccc2)c(=O)n1)OCc1ccccc1,·,·,-73,0,0,·,-3,·,
Cc1ccc(-c2nnn(CC(=O)N(c3ccc(F)cc3)C(C(=O)NC(C)(C)C)c3ccco3)n2)o1 (stereo unspecified),-6,5,·,0,1,i,-15,-10,
CSc1nnc(NC(=O)c2nc(S(=O)(=O)Cc3cccc(C)c3)ncc2Cl)s1,-5,7,89*,-4,-5,i,-14,110*,
Cc1cc(=O)n(Cc2ccccc2)c2c(C)cccc12,1,8,1,0,4,i,-15,2,
COc1ccc(C2CC(c3cccs3)n3nc(N)nc3N2)cc1 (stereo unspecified),-3,10,-51,-6,-2,i,-23,4,
O=C1NC(=O)N(C2CCCCC2)CC1Br (stereo unspecified),·,·,26,1,-3,·,-18,·,
COc1ccc(C(=O)NCC(=O)N/N=C/c2cn[nH]c2-c2ccccc2)cc1,7,-1,24,2,1,i,-16,0,
Cc1ccc(S(=O)(=O)Nc2nc(-c3ccccc3)cs2)cc1,-7,14,-1,1,3,i,-5,-6,
CCOc1ccccc1NC(=O)CCC(=O)Nc1nnc(C2CCCCC2)s1,-5,-11,-5,-1,2,i,-20,-2,
COc1ccc(/C=N/NC(=O)Cn2cnc3ccccc3c2=O)cc1OC,-2,-2,31,4,3,i,-8,-6,
CCN(CC)S(=O)(=O)c1ccc(N2CCOCC2)c(NC(=O)c2cccc3c(=O)c(C)c(-c4ccccc4)oc23)c1,·,·,20,9,-6,i,-17,13,
C=CCn1c(SCc2ccccc2)nc(O)cc1=O,-9,-2,·,9,1,i,-7,-6,
O=C1CC(C(=O)O)S/C(=N\NC(=O)c2ccccc2)N1 (stereo unspecified),-4,-3,·,-6,1,i,-14,-9,
COc1cccc(NC(=O)c2ccc(-c3ccccc3[N+](=O)[O-])o2)c1,48,0,-15,3,0,i,·,-3,
O=C(CCS(=O)(=O)c1ccc(F)cc1)Nc1ccc(N2CCN(Cc3ccccc3)CC2)cc1,·,·,-7,7,1,·,2,·,
Cc1ccccc1C(=O)N1CCC(C(=O)NC(C)c2ccc(-n3ccnc3)cc2)CC1 (stereo unspecified),-4,8,10,-4,-4,i,-10,-12,
FC(F)(F)c1cc(-c2ccccc2)nc2nc(N3CCOCC3)sc12,-5,-6,1,-2,-5,i,·,-16,
COc1cc(C(=O)OCC(=O)Nc2ccc(S(=O)(=O)NC3=NCCCCC3)cc2)cc(OC)c1OC,·,·,-4,4,-10,·,5,4,
CCOc1ccc(Cl)cc1-c1cc(C(=O)NCc2ccccc2OC)[nH]n1,·,·,27,-13,-15,·,-9,·,
COc1ccc(C(NC=O)c2cc(OC)c(OC)cc2Br)cc1OC (stereo unspecified),3,10,·,-4,0,i,2,-10,
CC(=O)c1cccc(S(=O)(=O)Nc2cccc(S(=O)(=O)NC3=NCCC3)c2)c1,-8,-3,5,7,12,i,-4,-11,
O=C(CN1C(=O)COc2ccccc21)N(Cc1ccc2c(c1)OCO2)CC1CCCO1 (stereo unspecified),-7,-1,-33,0,0,i,-10,-10,
CC1(C)Cc2nc3sc4c(SCC(=O)NC(c5ccccc5)c5ccccc5)ncnc4c3cc2CO1,0,1,-24,6,6,i,-21,3,
CSc1nc(NCCN(C)C)c2sc3nc(-c4ccco4)c4c(c3c2n1)CCC4,·,·,13,3,3,·,-10,·,
O=C(Nc1ccc(C2CC2(Cl)Cl)cc1)c1cccc([N+](=O)[O-])c1 (stereo unspecified),-9,-20,-31,10,1,i,-18,61,
Cc1ccc(C)c(NC(=O)CSc2nnc([C@@H](N)Cc3ccccc3)o2)c1,7,3,5,2,6,i,11,·,
O=S(=O)(c1cccc2ccccc12)N1CCSC1,0,7,·,7,6,·,-15,12,
CCCCOc1cc(NCc2ccccc2)c2ncn(C(C)C)c2c1,·,·,19,3,-5,·,-9,·,
COc1ccc(C(=O)NC2CCCc3c2cnn3-c2ccc(C)c(C)c2)c(OC)c1OC (stereo unspecified),-13,9,2,-1,-12,i,-19,·,
COc1ccc(CCNS(=O)(=O)c2cccc(F)c2)cc1OC,-2,2,-38,1,0,i,0,·,
Cn1c(=O)c(-c2cc(=O)[nH][nH]2)c(O)c2ccccc21,11,-4,8,4,0,i,·,-12,
NNC(=O)c1nc[nH]c1C(=O)Nc1ccccn1,1,19,-13,6,-3,·,·,-17,
Cc1ccc(NC(=O)C2=CC(c3ccc(C)cc3)=NS(=O)(=O)N2C)cc1,-12,4,9,4,-2,i,-16,·,
CCc1cccc(OCCCCNCCOC)c1,7,10,·,1,0,i,·,3,
COC(=O)Oc1nsnc1N1CCOCC1,-9,1,·,4,1,i,-4,-8,
S=c1[nH]nc(-c2cc(-c3ccccc3)n[nH]2)n1/N=C/c1c2ccccc2cc2ccccc12,7,12,·,-1,-2,·,·,48,
Cn1c(=O)c2c(ncn2CC(=O)Nc2nc3ccc(F)cc3s2)n(C)c1=O,6,8,·,-5,3,i,6,-3,
Fc1ccc(-c2cnn3c(-c4ccncc4)ccnc23)cc1,-18,-3,-154,1,-10,i,·,-3,
Cc1ccc(NC(=S)N2CCC(NC(=O)c3ccccc3)CC2)cc1,-9,-2,8,-1,-2,i,-25,8,
O=S(=O)(c1ccc(-n2cnnn2)cc1)N1CCN(c2ccccc2F)CC1,-7,-6,4,4,-2,i,-13,-4,
CCc1ccc(CNCc2cccs2)cc1,-9,-5,-9,1,2,i,·,5,
CN(Cc1ccccc1)C(=O)c1cccc(N2C(=O)NC3CC2(C)Oc2ccccc23)c1 (stereo unspecified),1,-12,-38,-1,-4,i,8,-10,
Cc1nc(NC(=O)c2cc3c(C)nn(-c4ccccc4)c3s2)sc1C(=O)Nc1ccccc1,-2,2,·,0,7,i,·,42,
CCOc1ccccc1N1CCN(C(=S)NC(=O)C23CC4CC(CC(C4)C2)C3)CC1,-14,-7,-3,-3,-5,i,·,32,
COC(=O)c1ccc2[nH]c(C)c(CN3CCCC3)c(=O)c2c1,5,18,·,4,6,·,-11,·,
COc1ccccc1N1CCN(C(=S)Nc2ccc(F)cc2)CC1,-1,2,12,5,2,i,-27,-16,
COc1ccc2nc(NC(=O)CSc3nnc(C)s3)sc2c1,-2,4,-45,1,2,i,·,-9,

# (list continues)
SMILES,eIF4H inh,PABP polyA inh,HIV Env fusion,MT1-MMP act inh,MT1-MMP act inh RFP,Rce1 inhib,UUG fidelity,CSC inhib,others
CC(C)NC(=O)C1(C)CCN1C(=O)c1ccc(F)c(Cl)c1 (stereo unspecified),·,·,-58,-4,0,·,-9,·,
Cc1ccc(C)c(N2CCN(C(=O)CN3C(=O)c4ccccc4C3=O)CC2)c1,-3,11,17,0,-9,i,15,-1,
O=C(C1CC=CCC1)N1CCN(C(=O)C2CC=CCC2)CC1 (stereo unspecified),-7,-1,·,-1,3,i,-1,0,
COc1ccc(OC)c2sc(N3CCN(C(=O)c4ccc([N+](=O)[O-])s4)CC3)nc12,·,·,0,3,-6,i,14,-11,
O=C(Nc1nc(-c2cccc([N+](=O)[O-])c2)cs1)c1cccc([N+](=O)[O-])c1C(=O)O,-1,18,-7,4,-2,i,-4,-10,
CC(C)CN1C(=O)c2ccc(C(=O)Nc3nccs3)cc2C1=O,-4,-2,·,0,-5,i,-9,-10,
CN(C)CCCOC(=O)COc1ccc(Br)cc1,4,4,-2,-4,1,i,·,-7,
CC(=O)Nc1ccc(/C=N/NC(=O)c2cccs2)cc1,-2,7,-15,0,1,i,·,-2,
CCC(=O)Nc1ccc(/C(C)=N\NC(=O)c2ccc(C)s2)cc1,3,-3,·,-3,1,i,-12,·,
CCN1CCCc2cc(CN(CCN3CCOCC3)C(=S)Nc3cccc(Cl)c3)ccc21,-8,13,-34,4,-3,i,-18,31,
COCCCNCC(=O)Nc1ccc(OC(F)(F)F)cc1,15,3,·,1,5,i,-25,9,
CC1CCN(S(=O)(=O)CCNC(=O)c2ccccc2)CC1,·,·,1,2,4,i,8,-9,
COc1ccc(-c2ncc3ccccn23)cc1OC,-7,8,·,6,11,i,-24,-13,
COc1ccc(N2CCN(C(=O)C(Cc3ccccc3)n3cccc3)CC2)cc1 (stereo unspecified),6,12,-2,3,-8,i,-2,1,
Cc1ccc(C)c(NC(=S)N2CCN(Cc3ccccc3)CC2)c1,-6,-14,1,-3,-6,i,·,-5,

# Looked up by compound from the entries so far, 6 records:
SMILES,eIF4H inh,PABP polyA inh,HIV Env fusion,MT1-MMP act inh,MT1-MMP act inh RFP,Rce1 inhib,UUG fidelity,CSC inhib,others
CN(C)CCCOC(=O)COc1ccc(Br)cc1,4,4,-2,-4,1,i,·,-7,
CC(=O)Nc1ccc(/C=N/NC(=O)c2cccs2)cc1,-2,7,-15,0,1,i,·,-2,
CC(C)CN1C(=O)c2ccc(C(=O)Nc3nccs3)cc2C1=O,-4,-2,·,0,-5,i,-9,-10,
Cc1ccc(C)c(NC(=S)N2CCN(Cc3ccccc3)CC2)c1,-6,-14,1,-3,-6,i,·,-5,
CCC(=O)Nc1ccc(/C(C)=N\NC(=O)c2ccc(C)s2)cc1,3,-3,·,-3,1,i,-12,·,
CC1CCN(S(=O)(=O)CCNC(=O)c2ccccc2)CC1,·,·,1,2,4,i,8,-9,

# Continuation.
SMILES,eIF4H inh,PABP polyA inh,HIV Env fusion,MT1-MMP act inh,MT1-MMP act inh RFP,Rce1 inhib,UUG fidelity,CSC inhib,others
COc1ccc(-c2nnc(SCC(=O)N3CCC(Cc4ccccc4)CC3)o2)cc1OC,-6,-2,-103,4,-2,i,6,-5,
CCOc1cccc2cc(C(=O)N3CC(C)OC(C)C3)c(=O)oc12 (stereo unspecified),4,-1,8,3,2,i,-15,-2,
COc1cc(C=O)ccc1OCCOCCOc1c(C)cc(Cl)cc1Cl,2,60,·,-3,-10,i,4,37,eIF4H inh retest=1;PABP polyA inh retest=4
O=S(=O)(c1cccs1)N1CCC(CO)(Cc2cccc(F)c2)CC1,0,-2,-2,-2,0,i,·,30,
